Cruzain Triton: inhibitors of Trypanosoma cruzi cruzain with detergent | P25779 | purified cruzain, Z-FR-AMC fluorescence, 0.01% Triton | Potency, µM, for the others: max response, negative = inhibition, hits mostly inhibitors | actives 0.43% (n = 200,000);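 further: plate controls were neutral wells for no effect and buffer without enzyme for full effect; nearly all actives have a fitted effect of over 40% in size; top concentration of the series not given in the record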
Target sequence (P25779 123-467 limits assumed): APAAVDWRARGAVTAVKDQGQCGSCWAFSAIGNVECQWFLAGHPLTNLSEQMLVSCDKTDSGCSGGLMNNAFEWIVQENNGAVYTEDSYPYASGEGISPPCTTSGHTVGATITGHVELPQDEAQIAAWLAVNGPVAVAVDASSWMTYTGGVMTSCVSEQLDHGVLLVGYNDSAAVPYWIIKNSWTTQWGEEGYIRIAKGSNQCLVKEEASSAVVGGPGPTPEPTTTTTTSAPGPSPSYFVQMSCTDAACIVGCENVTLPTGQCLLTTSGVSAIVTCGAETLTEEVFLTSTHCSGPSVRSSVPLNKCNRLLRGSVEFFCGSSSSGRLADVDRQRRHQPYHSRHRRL
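Detergent-containing run (0.01% Triton X-100) in acetate buffer pH 5.5 with 5 mM DTT: enzyme at 1.5 nM final, 15 min compound preincubation at room temperature, then 2 uM Z-FR-AMC substrate. Activity taken as 60 s fluorescence increase at 360/450 nm.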
NS1 inh: inhibitors of influenza NS1 protein function | S. cerevisiae slowed by influenza A NS1, growth recovery by OD600 | Potency, µM (doses to about 46.1 µM), without a hit: at the top dose activity, positive = more growth | actives 0.4% (n = 270,000) | AID 2326; active means well fitted rising curve with a large enough effect; inconclusive means small, poorly fitted or top-dose-only effect; inactive means no such curve, though single readings can be large or run the other way; further: nearly all actives have a fitted effect of over 50% in size
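OD600 was taken as the measure of yeast growth restored by compound in an NS1-expressing S. cerevisiae strain. Cells had been washed out of glucose medium and diluted 1:100 into galactose -URA medium, pH 6.0.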
RE007 growth inh: less growth of the S. pombe RE007 Vpr strain | S. pombe RE007 Vpr strain, BacTiter-Glo ATP luminescence, 24 h; control for the full effect not named in the record | Potency, µM (series often up to 92.2 µM), without a hit: at the highest dose activity change, negative = less growth | actives 0.21% (n = 360,000); active = well fitted falling curve with a large enough effect; inconclusive = small, poorly fitted or top-dose-only effect; inactive = no such curve, though single readings can be large or run the other way;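 further: on the % scale 0 is the no-effect control and ±100 the full control effect; nearly all actives have a fitted effect of over 50% in size; the assay follows cell death caused by Vpr and the record does not say whether a fall means rescue or toxicity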
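Fission yeast RE007 carrying one integrated HIV-1 vpr copy, seeded at OD 0.01 in PMG+AL medium with 23 nL pinned compound. Grown 24 h at 30 degrees; viability read by BacTiter-Glo luminescence after 5 min.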
Cruzain noTriton: blocks cruzain activity in detergent-free assay. P25779. purified cruzain, Z-FR-AMC fluorescence, no detergent. actives 2.3% (n = 200,000). Potency, µM, for inactives: max response, negative = inhibition, hits mostly inhibitors;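 further: plate controls were enzyme without inhibitor for no effect and buffer without enzyme for full effect; nearly all actives have a fitted effect of over 40% in size; top concentration of the series not given in the record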
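Purified cruzain at 1.5 nM, pre-incubated 15 min with compound at room temperature in 100 mM sodium acetate pH 5.5, 5 mM DTT, 0.00005% Triton X-100. Reaction started with 2 uM Z-FR-AMC; AMC fluorescence increase over 60 s gives rate.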
StopGo reporter: FMDV 2A StopGo reporter, luciferase signal; actives 1.2% (n = 410,000); Potency, µM (titrated, usually from 57.9 µM), for the others: at the top dose signal change, negative = less light; human cells with a luciferase reporter of 2A StopGo recoding; control for the full effect not named in the record; active = well fitted falling curve with a large enough effect; inconclusive = small, poorly fitted or top-dose-only effect; inactive = no such curve, though single readings can be large or run the other way; tested in HEK293T cells; further: on the % scale 0 is the no-effect control and ±100 the full control effect; nearly all actives have a fitted effect of over 45% in size; luciferase light after 4 h
MARV entry inh: blocks Marburg virus binding to or entry into cells | Potency, µM (titrated, usually from 37.8 µM), for inactives: top-dose activity change, negative = inhibition, hits mostly inhibitors | AID 540276 | actives 1.8% (n = 300,000) | Marburg virus pseudotyped entry inhibition, cell reporter; control for the full effect not named in the record; about a third of the inactives were read at about 46 µM; active = well fitted inhibition curve with a large enough effect; inconclusive = small, poorly fitted or top-dose-only effect, or effect the other way; inactive = flat fitted curve, though single readings scatter; tested in HEK293 cells; about a fifth of its hits are not listed in these tables; further: on the % scale 0 is the no-effect control and ±100 the full control effect; luciferase read-out
SARS PLP yeast: inhibitors of SARS-CoV papain-like protease in yeast. S. cerevisiae expressing SARS-CoV PLpro, growth rescue; control for the full effect not named in the record. Potency, µM (series often up to 32.9 µM), without a hit: top-dose activity, positive = growth rescue. actives 0.19% (n = 330,000); active means well fitted rising curve with a large enough effect; inconclusive means small, poorly fitted or top-dose-only effect; inactive means no such curve, though single readings can be large or run the other way; further: 0% is about no effect; nearly all actives have a fitted effect of over 55% in size; growth read by luminescence after 48 h
LASV entry inh: Lassa virus entry inhibition; Lassa virus pseudotype entry inhibition, cell reporter; control for the full effect not named in the record; Potency, µM (top dose mostly 37.9 µM), for the others: top-dose activity change, negative = inhibition, most hits filed as inhibitors; actives 1.2% (n = 300,000); AID 540256; active means well fitted inhibition curve with a large enough effect; inconclusive means small, poorly fitted or top-dose-only effect, or effect the other way; inactive means flat fitted curve, though single readings scatter; tested in HEK293 cells; further: on the % scale 0 is the no-effect control and ±100 the full control effect; nearly all actives have a fitted effect of over 50% in size; luciferase read-out
Numbers without * were called inactive; ? = inconclusive; · = not tested or not shown; & = joins results of further samples; [ ] = dose if it differs, or a comment. Unless noted, the call rests on the fitted dose curve; in most records, active means well fitted curve in the direction sought with a large enough effect; inconclusive means small, poorly fitted or top-dose-only effect, or another doubt; inactive means no such curve, though single readings can be large; an effect the other way counts as inactive or inconclusive. Potency means the concentration at half of the fitted maximal effect.

SMILES | Cruzain Triton | NS1 inh | RE007 growth inh | Cruzain noTriton | StopGo reporter | MARV entry inh | SARS PLP yeast | LASV entry inh
CCN(CC)S(=O)(=O)c1ccc(N2CCOCC2)c(NS(=O)(=O)c2ccc(C)c(C)c2)c1 | -7.0% | 3% | -6% | ? | 44%[activator] | 10% | -9% | ?
O=C(NC(=O)N1CCN(c2ccc([N+](=O)[O-])cn2)CC1)c1ccccc1F | · | 6% | -6% | · | -14% | · | -1% | ·
O=C(NCCCN1CCCC1=O)c1ccc([N+](=O)[O-])s1 | · | · | -18% | · | -8% | -5% | · | 3%
CCOC(=O)c1cnc2cc(F)c(F)cc2c1Nc1ccccc1O | 0.3% | · | · | -7% | 3% | 12%[46.1 µM] | · | 1%[46.1 µM]
CCC(CC)NC(=O)Nc1cccc(C)c1C | · | 10% | -2% | · | -6% | · | 0% | ·
COc1ccc2oc(=Nc3ccc(C(=O)O)cc3)c(C(=O)NCc3ccco3)cc2c1 | · | · | 3% | · | -8% | 2% | 0% | -1%
COc1ccccc1N1CCN(C2CCCN(C(=O)CCc3cnn(C)c3)C2)CC1 (stereo not given) | · | 5% | -17% | · | 2% | 19%[46.1 µM] | 1% | 22%[46.1 µM]
CC(O)CNCCOc1ccccc1-c1ccccc1 (stereo not given) | · | 10% | 15% | · | -1% | -2%[46.1 µM] | 0% | ?
O=C1c2ccccc2C(=O)N1CCCCN(C(=O)c1ccc(Cl)s1)c1ccc(Cl)cc1 | -3.6% | -6% | -7% | -2% | ? | 1% | 7% | 0%
O=C(NCCc1ccccc1F)C1CC(O)CN1C(=O)Nc1ccccc1 (stereo not given) | · | -6% | 7% | · | -22% | · | 2% | ·
CCCn1c(N)c(N(CCOC)C(=O)COC(=O)CSc2cc(C)c3ccccc3n2)c(=O)[nH]c1=O | · | · | -3% | · | -14% | 6% | -4% | ?
NS(=O)(=O)c1ccc(NNC(=O)c2ccccc2)cc1 | · | -2% | -11% | · | -2% | · | -1% | ·
COc1ccc(Nc2nc(NCc3ccco3)nc(N3CCOCC3)n2)cc1 | · | -2% | 15% | · | -20% | 2.8µM* | 1% | -1%
COc1ccccc1N1CCN(CC(=O)N2CCCC2)CC1 | · | -3% | -8% | · | 3% | 16%[46.1 µM] | -1% | 16%
Cc1ccc(C2=NN(CCC#N)C(=O)CO2)cc1 | · | -2% | 10% | · | -10% | -16%[46.1 µM] | 2% | 18%[46.1 µM]
CCOc1ccccc1NC(=O)Cn1c(=O)n(CCC(C)C)c(=O)c2cccnc21 | 0.7% | · | · | -18% | -21% | 9%[46.1 µM] | · | ·
CCCCn1cc(S(=O)(=O)c2ccc(OC)cc2)c(=O)c2cc(CC)ccc21 | -4.9% | · | · | -13% | 6% | ? | · | -20%[46.1 µM]
COc1ccc(C(=O)C(Cc2cc(C(C)=O)ccc2OC)N2CCCC2)cc1 (stereo not given) | · | · | -7% | · | 16% | ? | 3% | -2%[46.1 µM]
CC1=C(C(=O)Nc2ccccn2)C(c2ccc3c(c2)OCO3)C2=C(CC(C)(C)CC2=O)N1 (stereo not given) | · | · | -14% | · | 0% | -3%[46.1 µM] | -1% | -4%[46.1 µM]
CCNc1nnc(SCC(=O)NC2CCCCCC2)s1 | · | · | -2% | · | -3% | 11% | 0% | 5%
COc1ccc(-c2csc(NC(=O)c3ccccc3NS(=O)(=O)c3ccc(C)cc3)n2)cc1 | -14% | -25% | 10% | ? | ? | 13µM* | -40% | ?
CNC(=O)/C(=C\c1ccco1)NC(=O)c1ccco1 | · | 1% | 4% | · | 3% | 6% | 2% | -16%
Cc1ccccc1COc1cccc(/C=N/NC(=O)c2nnn(-c3nonc3N)c2C)c1 | · | 11% | -12% | · | -22% | · | 2% | ·
Cc1ccn2c(Nc3ccc4c(c3)OCO4)c(-c3ccccn3)nc2c1 | 5.1% | ? | -9% | 1% | ? | ? | ? | ?
Cn1c(=O)cc(OCCCC(=O)NCCC2=CCCCC2)c2ccccc21 | · | · | -4% | · | -7% | -26%[46.1 µM] | 0% | 4%
COc1cccc(-c2cc(C(=O)N3CCN(C(c4ccccc4)c4ccccc4)CC3)no2)c1 | 3.4% | 6% | 3% | ? | -13% | -4%&-25% | -6% | -21%
CC(C)(C)n1nc2c(c1NC(=O)Cc1ccc([N+](=O)[O-])cc1)CS(=O)(=O)C2 | · | -5% | 6% | · | -23% | 9% | 0% | 14%
COc1ccc(Cl)cc1S(=O)(=O)N1CCCC(C(=O)N2CCOCC2)C1 (stereo not given) | · | 20% | -3% | · | 4% | 4%[46.1 µM] | · | -9%
CCOC(=O)CSC1=C(C#N)C(c2ccc(Cl)cc2)CC(=O)N1 (stereo not given) | -3.9% | -9% | 2% | 0% | -9% | · | 0% | ·
COCC(C)NC(=O)c1cc(-c2ccccc2OC)on1 (stereo not given) | -2.0% | -9% | 3% | -2% | 71%[activator] | -22% | 1% | ?

Ordered by molar mass (lowest first): some entries from above
SMILES | Cruzain Triton | NS1 inh | RE007 growth inh | Cruzain noTriton | StopGo reporter | MARV entry inh | SARS PLP yeast | LASV entry inh
CNC(=O)/C(=C\c1ccco1)NC(=O)c1ccco1 | · | 1% | 4% | · | 3% | 6% | 2% | -16%
CCNc1nnc(SCC(=O)NC2CCCCCC2)s1 | · | · | -2% | · | -3% | 11% | 0% | 5%
Cc1ccn2c(Nc3ccc4c(c3)OCO4)c(-c3ccccn3)nc2c1 | 5.1% | ? | -9% | 1% | ? | ? | ? | ?
CCOC(=O)CSC1=C(C#N)C(c2ccc(Cl)cc2)CC(=O)N1 (stereo not given) | -3.9% | -9% | 2% | 0% | -9% | · | 0% | ·
CC(C)(C)n1nc2c(c1NC(=O)Cc1ccc([N+](=O)[O-])cc1)CS(=O)(=O)C2 | · | -5% | 6% | · | -23% | 9% | 0% | 14%
COc1ccc(Cl)cc1S(=O)(=O)N1CCCC(C(=O)N2CCOCC2)C1 (stereo not given) | · | 20% | -3% | · | 4% | 4%[46.1 µM] | · | -9%
Cc1ccccc1COc1cccc(/C=N/NC(=O)c2nnn(-c3nonc3N)c2C)c1 | · | 11% | -12% | · | -22% | · | 2% | ·
COc1cccc(-c2cc(C(=O)N3CCN(C(c4ccccc4)c4ccccc4)CC3)no2)c1 | 3.4% | 6% | 3% | ? | -13% | -4%&-25% | -6% | -21%

(continued)
SMILES | Cruzain Triton | NS1 inh | RE007 growth inh | Cruzain noTriton | StopGo reporter | MARV entry inh | SARS PLP yeast | LASV entry inh
COc1cccc(CNCCSc2nnnn2C)c1OCc1ccc(Cl)cc1 | -0.4% | · | · | -4% | 0% | 10µM* | · | -1%[46.1 µM]
COc1ccccc1C(c1nnnn1CCc1ccccc1)N1CCCCCC1 (stereo not given) | -2.4% | -3% | 0% | -16% | 6% | ? | 5% | ?
O=C(O)C1CC=CCC1C(=O)NCc1ccc2c(c1)OCO2 (stereo not given) | -2.6% | -7% | -10% | -8% | -16% | -5% | 8% | 7%
O=C(CN1CCCCCCC1)N/N=C/c1ccccc1F | -2.3% | -2% | -8% | -4% | -2% | 1% | -4% | 7%
CCOC(=O)c1ccc(NC(=O)Nc2ccon2)cc1 | · | -66% | -3% | · | 13% | · | -1% | ·
Cc1ccc(-c2cc(C(=O)Nc3nn[nH]n3)c3ccccc3n2)c(C)c1 | -11% | -6% | -4% | 6% | 7% | 21% | -2% | -2%
COc1ccc(OC)c(S(=O)(=O)NCc2cccnc2)c1 | 4.9% | -4% | 0% | -4% | 71%[activator] | ? | 4% | -3%
CC1(C)Cc2c(cnn2-c2cccc(F)c2)C(NC(=O)c2csnn2)C1 (stereo not given) | · | -43% | 18% | · | -21% | ? | -1% | -7%[46.1 µM]
COc1ccc(CC(=O)OCC(=O)Nc2ccc(Cl)cn2)cc1 | -7.0% | 4% | -25% | -6% | 5% | 15% | -2% | 0%
CCN(CC)S(=O)(=O)c1ccc2c(c1)nc(SCn1nnc3ccccc3c1=O)n2CC | 3.5% | 5% | 25% | -11% | 10% | ? | 0% | -3%
Cc1ccc(S(=O)(=O)N2CCC(C(=O)NCCCN3CCCC3=O)CC2)cc1 | · | · | 7% | · | -10% | 24% | 0% | 2%
COc1cccc(CNC(=O)c2cc3c(-c4ccccc4F)nn(C)c3s2)c1 | -3.1% | · | · | 14% | ? | 1%[46.1 µM] | · | ?
CC/C(=N\NC(=O)c1ccc(Br)cc1)c1ccccc1 | · | 4% | 3% | · | 42%[activator] | -2% | -1% | 8%
Cc1ccc(C(=O)Nc2ccc3c(c2)CCC3)o1 | -1.9% | -11% | ? | -3% | 30% | ? | -7% | ?
O=C(NCCN1CCOCC1)c1cc(-c2ccc(F)cc2)nc2ccccc12 | · | · | -6% | · | -6% | 22% | -3% | ?
COc1ccc(S(N)(=O)=O)cc1C(=O)OCC(=O)N1CC(=O)Nc2ccccc21 | · | · | 11% | · | -12% | -12%[46.1 µM] | -3% | 15%
CCOc1ccc(-c2cccc(NC(=O)c3cccs3)c2)nn1 | · | · | -2% | · | -4% | 9%[46.1 µM] | -7% | -9%
CCOc1ccccc1CNC(=O)CCn1c(=O)c2cccn2c2ccc(F)cc21 | -4.2% | · | · | -1% | -14% | · | · | -3%[46.1 µM]
O=C1C(C=NCCCN2CCOCC2)=C(O)c2ccccc21 | -3.7% | 4% | -2% | -6% | 64%[activator] | -8% | 0% | 4%
CC1C(O)=C(c2nc3ccccc3[nH]2)C(=N)N1c1ccccc1 (stereo not given) | -6.0% | -47% | -23% | 1% | 49%[activator] | ? | 0% | -1%
O=C(CSc1nnc(SCc2ccc(Cl)cc2)s1)N1CCN(C(=O)c2ccco2)CC1 | -2.3% | -34% | -7% | ? | 17% | 3%&3% | -1% | ?
Cc1ccccc1Nc1nc(N2CCOCC2)nc(N2CCOCC2)n1 | · | -7% | -6% | · | -26% | 6.3µM* | -7% | -29%[46.1 µM]

Screening results from PubChem BioAssay.
